CDC25B-CDK2 inh: human CDC25B-CDK2/CyclinA binding inhibition | AID 1259370 | P30305+P24941 | 0.72% of 94,000 active | z-score (test concentration not listed) | HTRF CDC25B-CDK2/CyclinA binding, anti-His/anti-Flag; stronger effect = higher value;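 also: score is relative to mean and SD of negative controls; strong numbers were not always called active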
HIV TAR-Tat: HIV-1 TAR-Tat binding disruption. HIV-1 TAR RNA, Tat peptide displacement FRET; stronger effect = higher value. z-score (test concentration not listed). 0.6% of 100,000 active;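 also: score is relative to mean and SD of negative controls; some compounds called inactive have numbers as strong as hits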
* marks the source's active call; other numbers are inactive results; · = no result given.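 The calls were made as follows: active = z-score from 3 up in half or more of its runs; inactive = the rest.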

Molecule | CDC25B-CDK2 inh | HIV TAR-Tat
COc1ccc(C2CC(=O)C3=C(C2)NC(=O)CC3c2cccc(Oc3ccccc3)c2)cc1OC (stereo not drawn) | -1.1 | 0.52
O=C(c1[nH]nc2c1CCc1ccccc1-2)N1CCN(c2ncccn2)CC1 | · | 0.69
Cc1ccccc1-n1nnc(-c2nc(-c3ccccc3)no2)c1N | · | -0.34
Cc1cccc(-c2nnc(C3CCN(S(=O)(=O)c4ccc5nc(-c6ccccc6)[nH]c5c4)CC3)o2)c1 | -0.38 | 0.64
Cc1ccc(C(CNC(=O)c2cc(=O)c3cc(Br)ccc3o2)N2CCCCC2)o1 (stereo not drawn) | -0.71 | -0.03
CC(=O)N1CCc2cc(NC(=O)CSc3nnc4sc5ccccc5n34)ccc21 | 0.82 | ·
CCOc1ccc(C2C(C#N)=C(N)OC3=C2C(=O)CC(C)(C)C3)cc1 (stereo not drawn) | -1.1 | ·
COc1cc2nc(N3CCN(c4ccccn4)CC3)n3nc(-c4ccccc4)nc3c2cc1OC | -0.63 | 0.58

Part of the list above, reformatted.
Cc1cccc(-c2nnc(C3CCN(S(=O)(=O)c4ccc5nc(-c6ccccc6)[nH]c5c4)CC3)o2)c1
  CDC25B-CDK2 inh = -0.38	HIV TAR-Tat = 0.64
Cc1ccc(C(CNC(=O)c2cc(=O)c3cc(Br)ccc3o2)N2CCCCC2)o1 (stereo not drawn)
  CDC25B-CDK2 inh = -0.71	HIV TAR-Tat = -0.03
CC(=O)N1CCc2cc(NC(=O)CSc3nnc4sc5ccccc5n34)ccc21
  CDC25B-CDK2 inh = 0.82	HIV TAR-Tat = ·
CCOc1ccc(C2C(C#N)=C(N)OC3=C2C(=O)CC(C)(C)C3)cc1 (stereo not drawn)
  CDC25B-CDK2 inh = -1.1	HIV TAR-Tat = ·

(continued)
Molecule | CDC25B-CDK2 inh | HIV TAR-Tat
CC(Nc1ncnc2c1sc1nc3c(cc12)COC(C)(C)C3)c1ccccc1 (stereo not drawn) | · | -0.92
COC(=O)C1C2C=CC3(CN(C4CCCCC4)C(=O)C13)O2 (stereo not drawn) | 0.11 | 1.9
CC(C)(C)c1nnc2sc(-c3cccc(Cl)c3)nn12 | -0.66 | 2.8
Cc1ccc(CNc2ccc3cc(S(=O)(=O)N4CCCCC4)ccc3n2)cc1 | · | 1.5
Cc1ccc(C)c(NS(=O)(=O)c2ccc(-c3coc(C)n3)cc2)c1 | · | 0.31
O=C(NCC1COCCO1)C1=Cc2ccccc2OC1 (stereo not drawn) | · | 0.58
CNNC(=O)Cn1nnc(-c2cc(C(F)(F)F)cc(C(F)(F)F)c2)n1 | -3.2 | ·
Cc1cc(N(CCO)CCO)n2nc(Cc3ccccc3)nc2n1 | -2.1 | 2.8

Next part
Molecule | CDC25B-CDK2 inh | HIV TAR-Tat
CCCNC(=O)C1CCCN(c2ncnc3c2nc2n3CCCCC2)C1 (stereo not drawn) | · | -0.98
CCOC(=O)C1=C(C)Nc2ccccc2S1 | -1.5 | 0.31
COc1ccc(-c2oc3ncnc(NCCCO)c3c2-c2ccc(OC)cc2)cc1 | -0.25 | 2
Cc1ccc(NC(=O)Nc2c[nH]c(=O)[nH]c2=O)cc1C | -1.2 | 0.32
COc1ccc(CC2C(=O)Nc3ccc(Br)cc32)cc1OC (stereo not drawn) | -1.1 | 0.48
CC(C)(C)N1C(=O)C2C(C(=O)Nc3ccc(Cl)cc3)C3C=CC2(O3)C1C(=O)NC1CCCCC1 (stereo not drawn) | -1.9 | -1.2
Cc1cc2n(n1)CCCN2C(=O)CCC(=O)N1CCc2ccccc2C1 | · | 3.5
O=C1CC(NCC2CCCO2)C(=O)N1c1ccc(F)cc1 (stereo not drawn) | -2 | -1.3

Next section:
Molecule | CDC25B-CDK2 inh | HIV TAR-Tat
CC(CCCCC(=O)Nc1ccc(C(F)(F)F)cc1)NCCc1cnc[nH]1 (stereo not drawn) | · | 0.54
Cn1cc(-c2cc3n(n2)CCC(=O)N3CC(=O)NCC2COCCO2)c2ccccc21 (stereo not drawn) | · | 1.3
CC1CCCCN1c1ncnc2c1sc1nc3c(cc12)COC(C)(C)C3 (stereo not drawn) | · | 0.25
O=C(Nc1ccncc1)c1nc(-n2cnnc2)ccc1Br | · | 2.1
O=c1[nH]c(-c2ccccc2O)nc2c1Cc1cc(Cl)ccc1O2 | -1.3 | 2.2
O=C1Cc2cc(NS(=O)(=O)c3ccccc3Br)ccc2N1 | · | 0.59
CC(C)N(C(=O)Cn1cc(SCC(=O)NC(C)(C)C)c2ccccc21)C(C)C | · | 0.87
CCC(C)(O)CC[C@@H]1[C@@]2(C)CCCC(C)(C)[C@@H]2CC[C@@]1(C)O (stereo partly drawn) | · | 0.27

Other records.
Molecule | CDC25B-CDK2 inh | HIV TAR-Tat
O=C(Cn1cnc(S(=O)(=O)N2CCCCC2)c1)Nc1ccc2c(c1)OCCO2 | · | 0.3
CCc1ccc(CN2N=NC3C(=O)N(c4ccc(Cl)cc4)C(=O)C32)cc1 (stereo not drawn) | -1.4 | -0.84
O=C(c1c(-c2ccccc2)c(-c2ccccc2)n[nH]c1=O)N1CCN(Cc2ccc3c(c2)OCO3)CC1 | -3.2 | 0.25
CC(CCc1ccco1)N(C)C(=O)C1CCN(c2ccc(-c3cccs3)nn2)CC1 (stereo not drawn) | · | 0.7
Cc1ccc(N2CCN(c3ncnc4c3cnn4-c3ccccc3)CC2C)cc1 (stereo not drawn) | · | 0.3
CC1=C(C(N)=O)C(c2ccco2)C(C#N)=C(SCC(N)=O)N1 (stereo not drawn) | -0.72 | ·
Cc1cccc(Nc2cnn(-c3nc4ccccc4s3)c(=O)c2Cl)c1 | -0.15 | -0.16
CC(=O)c1ccc(Oc2ccc([N+](=O)[O-])cc2)cc1 | 0.3 | ·

Going on with the list.
Molecule | CDC25B-CDK2 inh | HIV TAR-Tat
CC1(C)Cc2nc(Cl)c(C(N)=O)cc2CO1 | -1.5 | ·
COc1ccc(C2CC(=O)C3=C(C2)NC(C)=C(C#N)C3c2ccc3c(c2)OCO3)cc1 (stereo not drawn) | -1.6 | 0.96
CCN(CC)C(=O)Cn1cc(C(=O)C2CC2)c2ccccc21 | 0.94 | 1.6
COc1cc(CNCCSc2nnnn2C)ccc1OCc1ccccc1 | -0.61 | -0.08
CCCCCSc1nc2n(n1)C(c1ccccc1)C1=C(CC(C)(C)CC1=O)N2 (stereo not drawn) | -0.97 | -0.36
COC(=O)c1ccc2nc(SCc3ccc(F)cc3)[nH]c2c1 | -1.6 | 1
CC1=C(C(=O)OC(C)C)C(c2cccc(F)c2)n2c(nc3ccccc32)N1 (stereo not drawn) | -0.86 | 0.1
CCC(C)NC(=O)c1ccc(-n2c(C)cc3ccccc32)s1 (stereo not drawn) | · | -0.06

Following part
Molecule | CDC25B-CDK2 inh | HIV TAR-Tat
O=C(NCCCn1ccnc1)c1cccs1 | 0.41 | 1.4
O=C1CCCC2=C1C(c1cccs1)N(S(=O)(=O)c1ccc(Cl)cc1)c1ccccc1N2 (stereo not drawn) | · | 1
CC1(C)CC(=O)C2=C(C1)NC1=C(C(=O)CC(C)(C)C1)C2c1ccc(I)cc1 | -0.79 | ·
O=C1Cc2cc(S(=O)(=O)NC3CCCCC3)ccc2N1 | 0.34 | -0.35
CCOC(=O)NC(Nc1ccc(S(=O)(=O)Nc2nccs2)cc1)(C(F)(F)F)C(F)(F)F | -0.98 | ·
CCCNS(=O)(=O)c1ccc2c(c1)oc(=O)n2CC(=O)OCC | 0.84 | -3.2
CCC(NS(=O)(=O)c1ccc2c(c1)Cc1cc(S(=O)(=O)NC(CC)C(=O)O)ccc1-2)C(=O)O (stereo not drawn) | -0.51 | ·
Oc1ccc2ccccc2c1SSc1c(O)ccc2ccccc12 | -0.86 | ·

(next part)
Molecule | CDC25B-CDK2 inh | HIV TAR-Tat
CCOC(=O)c1c[nH]c2c(C(=O)OCC)cccc2c1=O | 0.62 | -0.17
CC1CCN(S(=O)(=O)c2ccc3c(c2)oc(=O)n3CC(=O)N2CCCC(C)C2)CC1 (stereo not drawn) | -0.59 | 0.52
O=C(NCCN1CCCCC1)c1noc2c1CCc1sccc1-2 | · | -0.09
CN(Cc1ccccc1)C(=O)Cn1ncc2c([nH]c3ccccc32)c1=O | · | -0.21
Cc1ccc(-c2ccc(=O)n(Cc3ccccc3)n2)cc1S(=O)(=O)N1CCCC1 | 0.88 | 1.7
COc1ccc(OCCC(=O)NNC(=S)NC2CC3C=CC2C3)cc1 (stereo not drawn) | -1.9 | ·
Cc1cc2oc(C(=O)Nc3nonc3C)c(C)c2cc1Cl | -2.4 | 2.5
CN(C1CCCCC1)C1CCN(C(=O)C2CCN(c3ccc(-c4cccs4)nn3)CC2)CC1 | · | -1.1

The results go on:
Molecule | CDC25B-CDK2 inh | HIV TAR-Tat
CCN(CC)C(=O)Cn1nc(C)c2ccccc2c1=O | -0.55 | 1.1
CC(=O)Nc1ccc(OC(F)(F)F)cc1[N+](=O)[O-] | -2.5 | ·
O=C1CC(c2ccc(F)cc2F)c2c(nc(SCc3ccccc3)[nH]c2=O)N1 (stereo not drawn) | -0.53 | -0.32
O=c1ccc(-c2ccc(S(=O)(=O)Nc3cc(F)ccc3F)o2)n[nH]1 | · | 0.71
Cc1ccc2ccc(C(Nc3ccccn3)c3cccnc3)c(O)c2n1 (stereo not drawn) | -2.2 | ·
O=C1CCCC2=C1C(c1ccco1)N(S(=O)(=O)c1ccc(F)c(Cl)c1)c1ccccc1N2 (stereo not drawn) | · | -0.27
CCCCN(Cc1ccco1)S(=O)(=O)c1csc(C(N)=O)c1 | · | 0.62
CCCCn1cc(S(=O)(=O)c2ccc(F)cc2)c(=O)c2ccccc21 | -1.1 | 0.08

More compounds:
Molecule | CDC25B-CDK2 inh | HIV TAR-Tat
CC1(C)Cc2ccccc2-c2nnc(-c3ccccc3Cl)n21 | 0.03 | 2.2
COc1ccc(C2C(C(=O)c3cccs3)=C(O)C(=O)N2c2nnc(C)s2)cc1 (stereo not drawn) | -2.1 | -5
CCOC(=O)N1CCC2(CC1)NCCc1c2[nH]c2ccccc12 | -1.6 | ·
Cc1cc(=O)n2[nH]cc(C(=O)Nc3ccc(Cl)cc3)c2n1 | 0.73 | 0.5
O=C(O)C1C2CC=CC2c2c3c(cc4ccccc24)C2C=CCC2CN31 (stereo not drawn) | 5.5 | 13
CC(C)c1nc(N2CCOCC2)c(C#N)c2c1CCCC2 | -0.35 | ·
CN1C(=O)C(O)(CC(=O)c2ccc3c(c2)OCO3)c2ccccc21 (stereo not drawn) | 0.77 | 0.14
N#CC1=C(SCc2ccccc2)NC(=O)CC1c1ccccc1 (stereo not drawn) | -0.17 | 0.33

The list goes on.
Molecule | CDC25B-CDK2 inh | HIV TAR-Tat
O=C(OCC1c2ccccc2-c2ccccc21)ON1C(=O)CCC1=O | -0.29 | ·
CCc1nc2ccccc2n1CC(O)COc1cc(OC)cc(OC)c1 (stereo not drawn) | -1 | -1.5
COc1cccc2c1OC(c1cccnc1)N1N=C(c3cc(C)ccc3O)CC21 (stereo not drawn) | -1.6 | 3.7
COc1ccc(Nc2ncnc3onc(-c4cc(F)cc(F)c4)c23)cc1Cl | · | 0.87
N#Cc1c(NC(=O)c2ccccc2Cl)sc2c1CCC2 | -0.68 | 3.2
CSc1cccc(NC(=O)CN(C)S(=O)(=O)c2ccc3c(c2)CC(C)N3C(=O)C2CCC2)c1 (stereo not drawn) | · | 0.13
O=C(CSc1nc2c(oc3ccccc32)c(=O)n1Cc1ccco1)Nc1ccccc1 | -1.2 | -0.78
O=C(Oc1ccc(C2NC(C(=O)O)CS2)cc1)c1ccco1 (stereo not drawn) | -0.69 | 0.69

(more compounds)
Molecule | CDC25B-CDK2 inh | HIV TAR-Tat
COc1ccc(C2C(C(=O)c3cccs3)=C(O)C(=O)N2CCN2CCOCC2)cc1OC (stereo not drawn) | -2.6 | 1.6
O=C(c1ccco1)N1CCN(C(=O)c2ccc(CS(=O)c3cccc(Cl)c3)o2)CC1 (stereo not drawn) | · | 2.3
C#CCOc1ccc(C2C(C(=O)OC)=C(C)NC3=C2C(=O)c2ccccc23)cc1OCC (stereo not drawn) | 0.03 | 0.55
O=C(C1=Cc2sc3c(c2CS1)CCCC3)N1CCN(C(=O)c2ccco2)CC1 | · | 2.8
CC1(C)C(=O)Nc2ccc(S(=O)(=O)N3CCCCC3)cc21 | · | -0.44
Cc1ccc([N+](=O)[O-])c(C)c1Nc1ccccc1C(=O)O | -1.5 | ·
CN1CCN(S(=O)(=O)C2CCS(=O)(=O)C2)CC1 (stereo not drawn) | -2 | -0.68
Cc1[nH][nH]c(=O)c1C(c1ccccc1OCc1ccc(Br)cc1)c1c(C)[nH][nH]c1=O | -0.76 | 1.2

Following part:
Molecule | CDC25B-CDK2 inh | HIV TAR-Tat
Nc1nc2ccccc2n1CCOc1ccc2ccccc2c1 | 0.43 | -0.1
Cc1cc(F)ccc1NS(=O)(=O)c1c(C)nc2scc(C)n2c1=O | -1.1 | 1
Cn1ncc2c(Nc3ccc(F)cc3)ncnc21 | · | 1.9
O=[N+]([O-])c1ccc(N2CCSCC2)cc1O | -1.5 | ·
COc1ccc(-c2cc(C)no2)cc1S(=O)(=O)N1CCc2ccccc21 | · | -1.7
Cc1cc(OS(=O)(=O)c2ccc(F)c(Cl)c2)n(-c2ccccc2)n1 | -1.6 | ·
O=C(O)CCCn1cnc([N+](=O)[O-])n1 | · | 1.1
CCOC(=O)C1Cc2c([nH]c3ccccc23)C(C)N1 (stereo not drawn) | -2.2 | -6.9

More compounds follow:
Molecule | CDC25B-CDK2 inh | HIV TAR-Tat
Cn1c(-c2ccccc2)cnc1NCc1ccc(Br)cc1 | -2.5 | 0.32
CCOC(=O)C1=C(C)NC2=C(C(=O)C(C(=O)OC)C(C)C2)C1c1ccc(OCc2ccccc2)cc1 (stereo not drawn) | -0.69 | 0.43
O=C(NC1CC1)c1ccc2c(=O)n3c(nc2c1)CCCC3 | · | 0.32
CC(=O)N1CCCc2cc(S(=O)(=O)N3CCCC(C(=O)NCC4CCCO4)C3)ccc21 (stereo not drawn) | · | -0.12

High-throughput results deposited in PubChem BioAssay by Center for Chemical Genomics, University of Michigan.
